Source: PubChem BioAssay
VACV mCherry inh: qHTS for Stage-Specific Inhibitors of Vaccinia Orthopoxvirus: mCherry Reporter Primary qHTS. hit rate 0.63% among 310,000. Potency, µM (titrated, usually from 36.5 µM), for inactives: at the top dose activity change, negative = inhibition, most hits filed as inhibitors. AID 720579, 2013. Vaccinia virus mCherry reporter infection, fluorescence; about a quarter of the inactives have no number; active = well fitted inhibition curve with a large enough effect; inconclusive = small, poorly fitted or top-dose-only effect; inactive = no such curve, though single readings can be large or run the other way; tested in A549 cells; further: nearly all actives have a fitted effect of over 35% in size; inactives centre near -10
Vaccinia Venus: qHTS for Stage-Specific Inhibitors of Vaccinia Orthopoxvirus: Venus Reporter Primary qHTS; Vaccinia virus Venus reporter expression, fluorescence; Potency, µM (doses to about 36.5 µM), without a hit: at the top dose activity change, negative = inhibition, usual class: inhibitors; hit rate 0.46% among 330,000; AID 720580, 2013; active means well fitted inhibition curve with a large enough effect; inconclusive means small, poorly fitted or top-dose-only effect; inactive means no such curve, though single readings can be large or run the other way; tested in A549 cells; further: nearly all actives have a fitted effect of over 30% in size; inactives centre near -10
* = called active by the depositor; i = inactive; ? = inconclusive; · = not tested or not shown; & = joins results of further samples; [ ] = dose if it differs, or a comment. On the % scale 0 is the no-effect control and ±100 the full control effect; potency means the concentration at half of the fitted maximal effect.

The first four records as a preview:
SMILES	VACV mCherry inh	Vaccinia Venus
COc1ccc(CNC(=O)C(NC(C)=O)C(=O)Nc2ccc(C(C)C)cc2)cc1 (stereo not given)	i	-18%
CCOc1ccc(C(C)NC(=O)c2cccnc2OCC)cc1OCC (stereo not given)	-15%	-6%
Cc1cccc(NC(=S)NCCc2ccccc2)c1C	0%	-14%
CC(C)(C)CN1CCNC[C@H]1Cc1cccc2ccccc12	-12%	-19%

Main list (from the top)
SMILES	VACV mCherry inh	Vaccinia Venus
COc1ccc(CNC(=O)C(NC(C)=O)C(=O)Nc2ccc(C(C)C)cc2)cc1 (stereo not given)	i	-18%
CCOc1ccc(C(C)NC(=O)c2cccnc2OCC)cc1OCC (stereo not given)	-15%	-6%
Cc1cccc(NC(=S)NCCc2ccccc2)c1C	0%	-14%
CC(C)(C)CN1CCNC[C@H]1Cc1cccc2ccccc12	-12%	-19%
Cc1cccc(NC(=O)CN(c2ccc(C(C)C)cc2)S(=O)(=O)c2c(C)nn(C)c2C)c1C	-12%	-16%
COc1ccc(Cn2c(CCC(=O)NCc3ccc(Cl)cc3)nc3cccnc32)cc1	-1%	-10%
Cc1ccc2nc(NC(=O)C3CCN(S(=O)(=O)c4cnc[nH]4)CC3)sc2c1	-15%	-27%
CC(NC(=O)c1ccc([N+](=O)[O-])cc1Cl)C1CC2CCC1C2 (stereo not given)	-11%	2%
CC(=O)c1cc(CN2CCC(C(=O)Nc3cccc(-c4cscn4)c3)CC2)cs1	i	-18%
N#Cc1ccc(OCC(=O)NCCCN2CCCC2=O)cc1	i	-6%
COc1cc(OC)c(OC)cc1CN1CCOc2ccc(CN3C[C@@H](C)O[C@@H](C)C3)cc2C1	-15%	0%
O=C(CN(c1ccc(F)cc1)S(=O)(=O)c1ccccc1)NCc1ccco1	·	-6%
CNC(=O)c1ccc2c(c1)N(Cc1ccccc1Cl)C(=O)c1ccccc1S2	-4%	-10%
COc1ccc(-c2nnc(-c3cc4c(ccc5ccccc54)oc3=O)o2)cc1	-7%	-6%
CCOc1ccc(NC(=S)N(CCc2c(C)[nH]c3ccccc23)Cc2ccco2)cc1	?	-24%
Cc1ccc(CSc2nc3ccc(NC(=O)COc4ccc(F)cc4)cc3s2)cc1	-8%	3%
CCCCN1C2=C(C(=O)CC(C)(C)C2)C(c2ccccc2)C2=C1c1ccccc1C2=O (stereo not given)	·	-10%
CCN1C(=O)/C(=C2\SC(=S)N(CCCOC)C2=O)c2ccccc21	·	-21%
Cc1ccc(NCc2nnc(SCCN3CCCCC3)n2CC2CCCO2)c(C)c1 (stereo not given)	5%	-1%
CCOC(=O)c1ccc(N2C(=O)c3n[nH]c(-c4cccs4)c3C2c2ccc(Cl)cc2Cl)cc1 (stereo not given)	?	?
CCOc1ccc(NC(=O)NCc2cccn2Cc2ccccc2)cc1	-10%	-17%
CN(CC(=O)Nc1ccc(Cl)c(C(F)(F)F)c1)C(=O)c1cc(=O)[nH]c2ccccc12	-4%	-16%
CCOc1ccc(NC(=O)CCNS(=O)(=O)c2ccc3c(c2)c(=O)n(C)c(=O)n3C)cc1	-9%	-5%
COc1ccc(NC(=O)c2cccs2)cn1	-14%	7%
C[C@@H]1CCCCO[C@H](CN(C)C(=O)CCC(F)(F)F)[C@@H](C)CN([C@H](C)CO)C(=O)c2cc(NC(=O)c3ccncc3)ccc2O1	1%	-8%
C#CCNC(=O)/C=C/c1ccc(OC)cc1	i	-20%
O=C(NCCCN1CCCC1=O)c1cccc(NS(=O)(=O)c2ccc(Br)cc2)c1	i	-12%
CCOc1ccccc1OCCC(=O)OCC(=O)Nc1c(C)nn(-c2ccccc2)c1C	-23%	-9%
O=C(Cn1cnc2c(nnn2Cc2ccc(F)cc2)c1=O)NCc1ccc(F)cc1	?	-11%
CC(OC(=O)Cc1c[nH]c2ccccc12)C(=O)Nc1ccccc1[N+](=O)[O-] (stereo not given)	-33%	-3%
C/C(N)=C(/C#N)C(=O)CSc1nnc(-c2ccc3c(c2)OCO3)o1	i	-15%
O=S1(=O)CC(NCc2ccccc2)C(Nc2ccc(Cl)cc2)C1 (stereo not given)	·	-29%
Oc1cc(-c2nc3ccccc3s2)cc2c1OCCN(Cc1cccn1-c1nccs1)C2	-16%	-9%
Cc1ccc(S(=O)(=O)N2CCOCC2)cc1NC(=O)COC(=O)CNC(=O)c1ccc(C(C)(C)C)cc1	-3%	-7%
COc1cc(NC(=O)c2ccc(-c3ccnn3C)c3ccoc23)cc(OC)c1OC	-5%	-23%
O=[N+]([O-])c1ccc(NCCc2ccccc2)c(Br)c1	-2%	-16%
COC(=O)c1[nH]c2ccccc2c1NC(=O)CN1CCN(c2cccc(Cl)c2)CC1	·	-21%
O=C1c2ccccc2C(=O)N1CCCCSc1nnnn1-c1ccccc1	·	-10%
Clc1ccc(-c2nnc(COc3ncnc4ccccc34)o2)cc1	-7%	1%
COC(=O)c1cc(S(=O)(=O)N2c3ccccc3CC2C)cn1C (stereo not given)	-3%	-17%
CCn1cc(S(=O)(=O)c2cc(C)cc(C)c2)c(=O)c2cc(F)c(N3CCN(c4ccccc4)CC3)cc21	-17%	-27%
CCOC(=O)c1cc(-c2ccccc2)nn1CC1CC(c2ccc(OC)cc2)=NO1 (stereo not given)	i	-22%
O=C(c1ccc2c(c1)OCO2)N(c1ccc(F)cc1)C1C=CS(=O)(=O)C1 (stereo not given)	i	-11%
Cc1cc(C)c2c(CN3CCCCCCC3)cc(=O)oc2c1	23%	3%
COc1ccc(OCCN2CCC(C(=O)NC(c3ccc(F)cc3)c3ncccc3C)CC2)cc1 (stereo not given)	15%	-12%
COc1ccc(/C=C/C(=O)Nc2nc(-c3cccs3)ns2)cc1OC	2%	-14%
CCCS(=O)(=O)c1ncc(Cl)c(C(=O)N2CCN(c3ccc(OC)cc3)CC2)n1	-16%[7.34 µM]	-9%[7.34 µM]
COc1ccccc1NC(=O)CCC(=O)c1ccc(-c2ccccc2)cc1	-9%	-12%
CNC(=O)Cn1c(C)cc(=O)c2cccc(C)c21	-14%	-4%
Cc1ccc(C(=O)O)cc1S(=O)(=O)N1CCOCC1	-8%	-1%
CCCOC(=O)Nc1sc2c(c1C(N)=O)CCCC2	-10%	-13%
CCOc1ccc(Nc2nc3c(S(=O)(=O)c4ccc(C(C)C)cc4)nnn3c3ccsc23)cc1	-21%	-25%
Cc1cccc(NC(=O)CSc2nc(=O)n(CCN3CCOCC3)c3c2CCCC3)c1C	i	-9%
COC(C(=O)Nc1ccc(NC(=O)C(OC)c2ccccc2)cc1)c1ccccc1 (stereo not given)	-15%	-4%
CCOc1cccc(C(=O)Nc2ccc3oc(Cc4ccc(Cl)cc4)nc3c2)c1	·	?
O=C(COc1ccc(Cl)cc1[N+](=O)[O-])N1CCCCCC1	-17%	2%
CCCCCCSc1cccc(-c2nc3ccc(C)cn3c2NCc2ccccc2)c1	i	-3%
Cc1c(O)ccc2c(CN3CCN(CCO)CC3)cc(=O)oc12	?	-15%
COCCN1C(=O)C(=O)/C(=C(/O)c2ccc(S(=O)(=O)N3CCOCC3)cc2)C1c1ccc(O)cc1 (stereo not given)	i	-4%
COC(=O)CN1C(c2ccc(OC)cc2)=Nc2ccc(Cl)cc2C1c1ccccc1 (stereo not given)	-6%	-1%

(more compounds)
SMILES	VACV mCherry inh	Vaccinia Venus
COCCNC(=O)CN(C(=O)Cn1nnc2ccccc21)c1ccc(F)c(Cl)c1	i	-16%
O=C1NC(C2CC3C=CC2C3)Nc2ccccc21 (stereo not given)	i	-3%
C[C@@H]1COc2cccc(N3CCC[C@H]3CO)c2S(=O)(=O)N1	22%	5%
C=CCn1c(=O)c(C(=O)Nc2ccccc2S(N)(=O)=O)c(O)c2ccccc21	i	-17%
CCC12CN(C(=O)c3ccco3)CC(CC)(CN(C(=O)c3ccco3)C1)C2=O	-9%	-10%
COc1c(O)ccc2c1-c1c3c(cc4c1C(C2)N(C)CC4)OCO3 (stereo not given)	i	-8%
CCOC(=O)c1c2c3c(c(Cl)ccc3[nH]c1=O)C(=O)c1ccccc1-2	-5%	92%[activator]
CC1CCCCN1C(=O)COc1ccc2ccc(=O)oc2c1 (stereo not given)	1%	-7%
O=C(CCNS(=O)(=O)c1cccs1)N1CCN(c2cccc(C(F)(F)F)c2)CC1	-29%	-15%
CCOc1ccc(C(=O)N(Cc2ccccc2)c2cccc(C)c2)cc1OC	?	?
Cc1[nH]ncc1Nc1c(C(C)C)cccc1C(C)C	i	-4%
COc1cc(OC)c(C2=NOC(C(=O)NCc3cccs3)C2)cc1Cl (stereo not given)	-12%	-25%

Reformatted with two lines to a compound: entries from further up
Fields: VACV mCherry inh, Vaccinia Venus
- CCOc1ccc(C(C)NC(=O)c2cccnc2OCC)cc1OCC (stereo not given)
    -15%, -6%
- O=C1c2ccccc2C(=O)N1CCCCSc1nnnn1-c1ccccc1
    ·, -10%
- COCCN1C(=O)C(=O)/C(=C(/O)c2ccc(S(=O)(=O)N3CCOCC3)cc2)C1c1ccc(O)cc1 (stereo not given)
    i, -4%
- COC(=O)CN1C(c2ccc(OC)cc2)=Nc2ccc(Cl)cc2C1c1ccccc1 (stereo not given)
    -6%, -1%
- CC(C)(C)CN1CCNC[C@H]1Cc1cccc2ccccc12
    -12%, -19%
- CC1CCCCN1C(=O)COc1ccc2ccc(=O)oc2c1 (stereo not given)
    1%, -7%

(continued)
SMILES	VACV mCherry inh	Vaccinia Venus
CCC1CCC/C1=N\NC(=O)c1ccccc1C (stereo not given)	i	-5%
O=C(C[C@H]1C/C=C\CC[C@H](Cc2ccc(F)cc2)C(=O)OC[C@H]2CCCN2C1=O)N[C@H](CO)Cc1ccccc1	8%	-20%
CC(=O)C1=C(O)C(=O)N(Cc2ccccc2)C1c1ccc(Cl)cc1 (stereo not given)	-3%	-22%
CCCCCOC(=O)Nc1ccc(S(=O)(=O)Nn2cnnc2)cc1	i	-8%
CN(C)S(=O)(=O)c1cccc(C(=O)OCC(=O)NC2CCCc3ccccc32)c1 (stereo not given)	-6%	-2%
CC(=O)Nc1cc(C)ns1	-12%	-7%
COc1ccc(CCNC(=O)c2ccc(N(C)S(=O)(=O)c3ccc(C)cc3)cc2)cc1	?	-27%
Cc1ccc(-c2nnn(CC(=O)N(CCN3CCOCC3)C(C(=O)NC3CCCC3)c3ccncc3)n2)o1 (stereo not given)	i	-1%
COc1ccc(CN(C(=O)CN2C(=O)COc3ccccc32)C2CCCC2)c(OC)c1	i	-2%
COc1ccc(Br)cc1CN(C)C(=O)Cc1ccc(S(=O)(=O)N2CCOCC2)s1	-12%	-6%
CCc1ccc2nc3sc(C(=O)O)cc3cc2c1	i	3%
CCOC(=O)N1CCN(C(=O)c2cnn(-c3cccc(F)c3)c2-n2cccc2)CC1	-11%	-16%
CC(Sc1c[nH]c2ccccc12)C(=O)O (stereo not given)	-8%	-5%
O=C(c1ccoc1)N1CCN(c2cc(-c3ccccc3)nc3cc(-c4ccccc4)nn23)CC1	?	?
C=C(C)C(=O)Nc1ccc2nn(-c3ccccc3O)nc2c1	-19%	-6%
Cc1ccnc(N2C(=O)c3ccccc3C2=O)c1	-14%	-10%
COc1ccccc1NC(=O)Cn1nnc(-c2ccccc2NC(=O)c2cccs2)n1	·	-15%
Cc1n[nH]c(=O)c2c(NC(=O)CSc3nnnn3-c3ccccc3)oc(C)c12	i	-12%
OC(COc1ccc2cc(Br)ccc2c1)CN1CCN(c2ccccn2)CC1 (stereo not given)	?	?
Cc1ccccc1S(=O)(=O)NC(=O)C1(C)CCN1C(=O)CC1CCCC1 (stereo not given)	9%	34%[activator]
COC(=O)Cc1c(C)nc2nc(-c3ccc(C)cc3)[nH]n2c1=O	-13%	-4%&-9%
O=c1oc2ccccc2n1CSc1nc2ccccc2s1	-3%	-11%
N#C/C(=C\c1ccccc1)C(=O)NC(=O)Oc1ccccc1	i	-4%
O=C(Nc1ccncc1)c1cccc(S(=O)(=O)N2CCOCC2)c1	-18%	-9%
CCN(CC)CCCN1C(=O)C(O)=C(C(=O)c2cc3cccc(OC)c3o2)C1c1ccncc1 (stereo not given)	1%	-4%
CCOC(=O)c1nc(N/N=C/c2ccccc2)sc1Br	-21%	-16%
Cc1nc(-c2cccc(F)c2)sc1CCNC(=O)C(=O)Nc1ccc2c(c1)OCCO2	-7%	-3%
CS(=O)(=O)Nc1cccc(C2=NN(S(C)(=O)=O)C(c3ccccc3)C2)c1 (stereo not given)	i	-18%
CC(C)C1Nc2ccc(C(=O)O)cc2C2C=CCC21 (stereo not given)	-10%	-1%
COC(=O)[C@]1(Cc2ccccc2)N[C@H](CN(C)C(=O)Nc2ccc(F)cc2)[C@@H]2C(=O)N(Cc3ccccc3)C(=O)[C@@H]21	?	-19%
O=C(Nc1sc2c(c1C(=O)O)CCC2)c1cccs1	i	-25%
CCOc1ccc(CCNC(=O)Cn2ccc3cc(S(=O)(=O)N4CCCC4)ccc32)cc1	-3%	-25%
COc1ccc(NC(=O)CN(c2ccccc2)S(=O)(=O)N(C)C)cc1Cl	-21%	-8%
CCOC(=O)Cc1cc(=O)n2[nH]c(C)c(-c3ccc(OC)cc3)c2n1	·	-25%
Cc1cc(N2CCOCC2)ccc1/C=C1\C(=O)NC(=O)N(c2ccccc2)C1=O	-28%	3%
CC(OC(=O)CCN=C1NS(=O)(=O)c2ccccc21)C(=O)Nc1ccc(F)cc1Cl (stereo not given)	i	-12%
O=C(NCc1ccc2c(c1)CCN2C(=O)c1ccccc1)c1ccccc1	-23%	-18%
COc1ccccc1OCCOc1ccc(C(=O)c2ccccc2)cc1	-17%	-3%
